# Screening results as filed in PubChem BioAssay.
# Cruzain Triton: blocks cruzain activity in presence of Triton detergent | actives 0.43% (n = 200,000) | P25779 | purified cruzain, Z-FR-AMC fluorescence, 0.01% Triton | Potency, µM, without a hit: max response, negative = inhibition, usual class: inhibitors;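 further: plate controls were neutral wells for no effect and buffer without enzyme for full effect; nearly all actives have a fitted effect of over 40% in size; top concentration of the series not given in the record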
# Target sequence (P25779 123-467 limits assumed): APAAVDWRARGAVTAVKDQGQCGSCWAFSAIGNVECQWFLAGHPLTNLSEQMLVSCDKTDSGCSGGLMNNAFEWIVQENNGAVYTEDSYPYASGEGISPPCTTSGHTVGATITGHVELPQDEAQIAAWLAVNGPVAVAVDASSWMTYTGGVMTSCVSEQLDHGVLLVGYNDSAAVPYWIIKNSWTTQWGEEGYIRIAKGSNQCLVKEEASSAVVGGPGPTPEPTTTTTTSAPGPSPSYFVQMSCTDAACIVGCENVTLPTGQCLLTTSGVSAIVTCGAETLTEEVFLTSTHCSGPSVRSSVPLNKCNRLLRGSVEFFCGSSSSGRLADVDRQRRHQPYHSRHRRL
#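 Enzyme 1.5 nM, Z-FR-AMC 2 uM, NaOAc 100 mM pH 5.5, DTT 5 mM, Triton X-100 0.01%; 15 min RT compound preincubation; kinetic ex360/em450, 60 s delta.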
# StopGo reporter: lowers the luciferase signal of an FMDV 2A StopGo reporter | human cells with a luciferase reporter of 2A StopGo recoding; control for the full effect not named in the record | Potency, µM (top dose mostly 57.9 µM), without a hit: at the top dose signal change, negative = less light | actives 1.2% (n = 410,000) | AID 1159524; active = well fitted falling curve with a large enough effect; inconclusive = small, poorly fitted or top-dose-only effect; inactive = no such curve, though single readings can be large or run the other way; tested in HEK293T cells; further: on the % scale 0 is the no-effect control and ±100 the full control effect; nearly all actives have a fitted effect of over 45% in size; luciferase light after 4 h
# Marburg entry inh: blocks Marburg virus binding to or entry into cells; Potency, µM (series often up to 37.8 µM), without a hit: at the highest dose activity change, negative = inhibition, hits mostly inhibitors; Marburg virus pseudotyped entry inhibition, cell reporter; control for the full effect not named in the record; about a third of the inactives were read at about 46 µM; actives 1.8% (n = 300,000); active = well fitted inhibition curve with a large enough effect; inconclusive = small, poorly fitted or top-dose-only effect, or effect the other way; inactive = flat fitted curve, though single readings scatter; tested in HEK293 cells; about a fifth of its hits are not listed in these tables; further: on the % scale 0 is the no-effect control and ±100 the full control effect; luciferase read-out
# NS1 inh: blocks influenza NS1 protein function; Potency, µM (series often up to 46.1 µM), without a hit: top-dose activity, positive = more growth; S. cerevisiae slowed by influenza A NS1, growth recovery by OD600; actives 0.4% (n = 270,000); AID 2326; active means well fitted rising curve with a large enough effect; inconclusive means small, poorly fitted or top-dose-only effect; inactive means no such curve, though single readings can be large or run the other way; further: nearly all actives have a fitted effect of over 50% in size
#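 A cell-based growth assay was used: compounds that relieve NS1-induced slow growth of budding yeast raise OD600. Assay medium was yeast nitrogen base with ammonium sulphate and -URA supplement, pH 6.0, with 2% galactose.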
# LASV entry inh: Lassa virus entry inhibition; AID 540256; Potency, µM (highest dose often 37.9 µM), for the others: at the highest dose activity change, negative = inhibition, most hits filed as inhibitors; actives 1.2% (n = 300,000); Lassa virus pseudotype entry inhibition, cell reporter; control for the full effect not named in the record; active means well fitted inhibition curve with a large enough effect; inconclusive means small, poorly fitted or top-dose-only effect, or effect the other way; inactive means flat fitted curve, though single readings scatter; tested in HEK293 cells; further: on the % scale 0 is the no-effect control and ±100 the full control effect; nearly all actives have a fitted effect of over 50% in size; luciferase read-out
# RE007 growth inh: less growth of the S. pombe RE007 Vpr strain | S. pombe RE007 Vpr strain, BacTiter-Glo ATP luminescence, 24 h; control for the full effect not named in the record | Potency, µM (titrated, usually from 92.2 µM), without a hit: at the highest dose activity change, negative = less growth | actives 0.21% (n = 360,000); active = well fitted falling curve with a large enough effect; inconclusive = small, poorly fitted or top-dose-only effect; inactive = no such curve, though single readings can be large or run the other way;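 further: on the % scale 0 is the no-effect control and ±100 the full control effect; nearly all actives have a fitted effect of over 50% in size; the assay follows cell death caused by Vpr and the record does not say whether a fall means rescue or toxicity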
#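 Fission yeast strain RE007, carrying one chromosomally integrated HIV-1 vpr copy, was seeded at OD 0.01 in PMG+AL medium with 23 nL pinned compound. After 24 h at 30 °C and 99% humidity, viability was read by BacTiter-Glo luminescence.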
# Cruzain inh noDet: cruzain (T. cruzi) inhibition without detergent; P25779; actives 2.3% (n = 200,000); AID 1476; Potency, µM, without a hit: max response, negative = inhibition, most hits filed as inhibitors; purified cruzain, Z-FR-AMC fluorescence, no detergent;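 further: plate controls were enzyme without inhibitor for no effect and buffer without enzyme for full effect; nearly all actives have a fitted effect of over 40% in size; top concentration of the series not given in the record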
#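 Purified cruzain at 1.5 nM, pre-incubated 15 min with compound at room temperature in 100 mM sodium acetate pH 5.5, 5 mM DTT, 0.00005% Triton X-100. Reaction started with 2 uM Z-FR-AMC; AMC fluorescence increase over 60 s gives rate.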
# SARS PLpro yeast: SARS-CoV PLP inhibition in yeast. S. cerevisiae expressing SARS-CoV PLpro, growth rescue; control for the full effect not named in the record. Potency, µM (highest dose often 32.9 µM), inactives show at the top dose activity, positive = growth rescue. actives 0.19% (n = 330,000); active means well fitted rising curve with a large enough effect; inconclusive means small, poorly fitted or top-dose-only effect; inactive means no such curve, though single readings can be large or run the other way; further: 0% is about no effect; nearly all actives have a fitted effect of over 55% in size; growth read by luminescence after 48 h
# * hit, by the source's call; ? = inconclusive; . = not tested or not shown; & = joins results of further samples; [ ] = another dose, or the depositor's remark. Unless noted, the call rests on the fitted dose curve; in most records, active means well fitted curve in the direction sought with a large enough effect; inconclusive means small, poorly fitted or top-dose-only effect, or another doubt; inactive means no such curve, though single readings can be large; an effect the other way counts as inactive or inconclusive. Potency means the concentration at half of the fitted maximal effect.
SMILES,Cruzain Triton,StopGo reporter,Marburg entry inh,NS1 inh,LASV entry inh,RE007 growth inh,Cruzain inh noDet,SARS PLpro yeast
Cc1cc(C)cc(C(=O)NC(=S)Nc2ccc(-c3cc4ccccc4oc3=O)cc2)c1,-1.5%,?,?,7%,-12%,.,10µM*,-2%
O=C(NCCN1CCOCC1)c1ccccc1-c1ccccc1,-8.2%,2%,2%,-1%,0%,5%,-11%,1%
S=c1[nH]cc(Oc2ccc(Cl)cc2Cl)c(=S)[nH]1,.,-11%,29%[46.1 µM],.,2%[46.1 µM],9%,.,.
COCCNC(=O)c1ccccc1NC(=O)CN(c1ccc2c(c1)OCO2)S(C)(=O)=O,-1.2%,17%,4%&11%,?,-5%,-5%,-7%,4%
CCn1c(/C=C/c2ccc(O)cc2)nc2ccccc2c1=O,.,-26%,?,-25%,?,2%,.,-6%
Cc1nc2ccccn2c1-c1ccnc(=S)[nH]1,.,10%,4%[46.1 µM],2%,12%,1%,.,0%
Cc1ccccc1C(=O)NC(=S)Nc1ccc(N2CCOCC2)cc1,.,9%,17%[46.1 µM],.,?,-2%,.,-3%
CCN(CC)C(=O)CC(c1cc(OC)c(OC)c(OC)c1)c1c(OC)cc(OC)c2c(-c3ccccc3)cc(=O)oc12 (stereo not drawn),.,82%[activator],.,-10%,.,19%,.,1%
Cc1ccc(CN2C(=O)CCC2C(=O)NCCN2CCOCC2)cc1 (stereo not drawn),2.7%,-12%,10%,5%,9%,5%,-8%,2%
CCc1sc(NS(C)(=O)=O)nc1-c1ccccc1,-2.2%,0%,?,-1%,18%,20%,-5%,-9%
COC(=O)c1c[nH]n2c(=O)cc(C)nc12,5.3%,-1%,4%,6%,4%,-13%,-5%,?
CCOc1ccc2nc(-c3ccccc3)[nH]c2c1,-21%,-28%,?,-136%,?,-28%,?,-15%
Cc1cccc(C)c1NC(=O)CCC(=O)N1Cc2ccccc2Oc2ncccc21,-0.1%,-5%,.,.,3%[46.1 µM],.,12%,.
COc1cccc(C(=O)NC(=S)Nc2ccc3c4c(cccc24)CC3)c1,0.5%,5%,14%,21%,8%,-5%,?,-2%
Cc1ccc(CN(C(=O)COc2c(C)cccc2C)C2CCS(=O)(=O)C2)o1 (stereo not drawn),-4.9%,-16%,-12%[46.1 µM],.,4%[46.1 µM],.,1%,.
Cc1nc2ccccc2c(=O)n1/N=C/c1cc(Br)ccc1O,.,-8%,?,-9%,-21%[46.1 µM],4%,.,25%
COc1cc(Br)c(Br)c(Br)c1N,.,-1%,-9%[46.1 µM],2%,14%,-8%,.,-1%
CC1CCN(C(=O)C2CCCN(c3ncnc4c3nc3n4CCCCC3)C2)CC1 (stereo not drawn),.,-13%,12%[46.1 µM],-24%,?,0%,.,?
Cc1oc(-c2ccc(Cl)cc2)nc1CS(=O)CC(=O)N1CCC2(CC1)OCCO2 (stereo not drawn),2.3%,-10%,1%&1%,11%,-11%,-11%,-4%,6%
O=C(O)/C=C/C(=O)NCCCc1ccccc1,.,-10%,-15%,1%,-1%,2%,.,-1%
Cc1ccc(-n2c(C)nc3ccsc3c2=O)cc1,.,12%,?,.,3%[46.1 µM],8%,.,.
Cc1cc(OCC(=O)Nc2ccc(F)c(F)c2)nc(C(C)C)n1,4.1%,.,13%,9%,6%,4%,8%,-1%
CCc1ccc2c(CN3CCc4cc(OC)c(OC)cc4C3)cc(=O)oc2c1,-8.2%,?,7%,9%,0%,-10%,20%,?
Cc1ccc(-n2ncc3c2CC(C)(C)CC3NC(=O)CCc2cccnc2)cc1 (stereo not drawn),.,?,-29%,-6%,-27%,-9%,.,-4%
CCOc1ccc(N2C(=O)c3[nH]nc(-c4ccccc4)c3C2c2ccc(O)c(OC)c2)cc1 (stereo not drawn),-8.1%,?,.,.,?,.,-9%,.
Cc1ccc(/C=C/C(=O)NCCc2ccccc2)o1,.,12%,?,-16%,8%[46.1 µM],2%,.,-7%
CC(C)C(=O)N1c2nc(-c3ccco3)nn2C2(CCCCC2)[C@@H]2CCCC[C@@H]21,-3.2%,-8%,-12%[46.1 µM],.,?,.,7%,.
COc1ccccc1CCC(=O)N(C)C1CCCN(Cc2ccccc2F)C1 (stereo not drawn),.,-17%,.,1%,.,-18%,.,4%
CCCCCCC[N+](CC)(CC)CCCCc1ccc(Cl)cc1,-3.6%,18µM*,.,.,.,-20%[18.4 µM],1%,.
O=C(Cn1[nH]c(=O)c2ccccc2c1=O)OCC(=O)N1CCc2ccccc2C1,2.1%,-1%,0%,-2%,5%,19%,6%,1%
COc1ccc(CC/C(=N\O)C2(O)CCCCC2)cc1,1.7%,34%[activator],18%,-12%,4%,32%,6%,-6%
CCCCCN(C(=O)CCC(=O)OCC(=O)Nc1cccc(SC)c1)c1c(N)n(CCCC)c(=O)[nH]c1=O,.,-4%,-25%,.,13%,1%,.,8%
Cc1onc(-c2ccccc2)c1C(=O)N1CCN(C)CC1,0.1%,.,21%,9%,9%,-5%,-4%,6%
CN(C)/C=N/c1nc2nccc(-c3ccc(Cl)cc3)n2n1,.,37%[activator],?,.,-10%[46.1 µM],8%,.,-1%
COc1cc(SC)ccc1C(=O)Nc1ccccc1,-1.8%,20%,?,-153%,-24%,-21%,-2%,-10%
COc1cccc(CNC(=O)CN2CCC(c3nc4ccc(C)cc4[nH]3)CC2)c1,.,-9%,.,5%,.,-12%,.,0%
O=C(COC(=O)/C=C/c1ccc(Cl)cc1)NC(=O)NCc1ccccc1,.,-13%,?,.,?,9%,.,-9%
N#Cc1cn(C2OC(CO)C(O)C2O)c2ncnc(N)c12 (stereo not drawn),.,14%,?,.,0.63µM*,-2%,.,.
COC(=O)CCS(=O)(=O)c1ccc(Cl)cc1,-5.6%,.,3%,1%,5%,-7%,2%,3%
Cc1noc(C)c1S(=O)(=O)N1CCCC(C(=O)Nc2ccc(C(C)C)cc2)C1 (stereo not drawn),1.7%,-28%,?,.,2%[46.1 µM],.,0%,.
Cc1cc(C)c(-n2nnnc2SCC(=O)c2cccs2)c(C)c1,.,-4%,-23%[46.1 µM],3%,?,8%,.,0%
CCNC(=S)Nc1ccc(S(=O)(=O)Nc2cc(C)nc(C)n2)cc1,.,13%,-3%[46.1 µM],5%,8%[46.1 µM],-22%,.,3%
COc1ccc2cc3c(N)nn(C(=O)Cc4c[nH]c5ccccc45)c3nc2c1,.,-20%,.,7%,.,2%,.,-1%
CCCCCn1c(=O)c(C(=O)Nc2nc(CC(=O)OCC)cs2)c(O)c2ccccc21,.,-18%,-13%[46.1 µM],.,-23%,-2%,.,2%
CCS(=O)(=O)c1ccc(O)c(NC(=O)c2ccc(S(=O)(=O)N3CCCCCC3)cc2)c1,.,0%,-26%[46.1 µM],.,7%[46.1 µM],4%,.,1%
Cc1ccc(/C=N/n2c(-c3ccncc3)n[nH]c2=S)cc1,1.6%,-7%,0%,4%,32%,0%,1%,18%
COc1ccc(Nc2ccc(N3C(=O)CC(C)C3=O)cc2[N+](=O)[O-])cn1 (stereo not drawn),.,?,13%[46.1 µM],.,?,-4%,.,3%
COC(=O)Cc1c(C)nc2nc(NCc3ccccc3OC)[nH]n2c1=O,5.5%,-20%,16%,14%,2%,6%,5%,6%
C=CCN(c1ccc(C(=O)Nc2ccc(NC(C)=O)cc2)cc1)S(C)(=O)=O,.,-9%,14%[46.1 µM],.,4%,4%,.,1%
Cc1ccccc1N1C(=S)NC2c3ccccc3OC1(C)C2C(=O)N(C)C (stereo not drawn),.,-3%,-7%[46.1 µM],.,-14%,-1%,.,0%
# The list continues:
SMILES,Cruzain Triton,StopGo reporter,Marburg entry inh,NS1 inh,LASV entry inh,RE007 growth inh,Cruzain inh noDet,SARS PLpro yeast
COc1ccc2nc(C)cc(SCC(=O)O)c2c1,2.1%&1.6%,-13%&-1%,4%&6%,2%&14%,-19%&0%,1%&-5%,-4%&11%,-2%&-2%
CCc1ccc(-n2c(=O)c3ccccc3n(CC(=O)NCc3ccco3)c2=O)cc1,.,-6%,-23%[46.1 µM],.,-3%,10%,.,1%
Cc1cc(C)c2oc(C(=O)Nc3ccc(S(=O)(=O)N4CCCCC4)cc3)cc(=O)c2c1,-0.7%,-8%,17%[46.1 µM],.,3%[46.1 µM],.,-6%,.
O=C(Nc1ccc(N2CCN(C(=O)c3ccccc3)CC2)cc1)c1ccc([N+](=O)[O-])o1,.,?,.,0%,.,-12%,.,-5%
Cc1ccc2oc(C(=O)N3CCC(c4nc5ccccc5s4)CC3)c(C)c2c1,-7.9%,-12%,6%[46.1 µM],.,8%[46.1 µM],.,-7%,.
COc1ccc(CC(=O)O)cc1O,.,2%,.,1%,.,-18%,.,1%
COc1ccc(Cl)cc1C(=O)CSc1nnnn1C,.,-14%,.,1%,.,-10%,.,0%

# Entries of single compounds as entered above. Order of screens: Cruzain Triton | StopGo reporter | Marburg entry inh | NS1 inh | LASV entry inh | RE007 growth inh | Cruzain inh noDet | SARS PLpro yeast
# CCN(CC)C(=O)CC(c1cc(OC)c(OC)c(OC)c1)c1c(OC)cc(OC)c2c(-c3ccccc3)cc(=O)oc12 (stereo not drawn) is entered as . | 82%[activator] | . | -10% | . | 19% | . | 1%
# COc1ccc2cc3c(N)nn(C(=O)Cc4c[nH]c5ccccc45)c3nc2c1 is entered as . | -20% | . | 7% | . | 2% | . | -1%
# COC(=O)CCS(=O)(=O)c1ccc(Cl)cc1 is entered as -5.6% | . | 3% | 1% | 5% | -7% | 2% | 3%
# COc1ccccc1CCC(=O)N(C)C1CCCN(Cc2ccccc2F)C1 (stereo not drawn) is entered as . | -17% | . | 1% | . | -18% | . | 4%
# CCCCCn1c(=O)c(C(=O)Nc2nc(CC(=O)OCC)cs2)c(O)c2ccccc21 is entered as . | -18% | -13%[46.1 µM] | . | -23% | -2% | . | 2%
